Source: PubChem (National Center for Advancing Translational Sciences (NCATS))
2A Renilla = lowers the Renilla signal of an FMDV 2A StopGo reporter. HEK cells with a luciferase reporter of 2A StopGo recoding. Potency, µM (highest dose often 57.5 µM), inactives show at the top dose signal change, negative = less light. hit rate 0.32% among 120,000. AID 1745857; active means well fitted falling curve with a large enough effect; inconclusive means small, poorly fitted or top-dose-only effect; inactive means no such curve, though single readings can be large or run the other way; note: nearly all actives have a fitted effect of over 55% in size; overnight with compound
StopGo FLuc = FMDV 2A StopGo reporter, firefly signal; Potency, µM (series often up to 57.5 µM), without a hit: at the highest dose signal change, negative = less light; hit rate 0.23% among 120,000; HEK cells with a luciferase reporter of 2A StopGo recoding; active = well fitted falling curve with a large enough effect; inconclusive = small, poorly fitted or top-dose-only effect; inactive = no such curve, though single readings can be large or run the other way; note: nearly all actives have a fitted effect of over 60% in size; overnight with compound
Starred values were filed as active, the others as inactive; ? = inconclusive; & = joins results of further samples; [ ] = remark or other dose. % is set by controls: 0 for no effect and ±100 for the full control effect; potency is the fitted concentration of half-maximal effect.

Start of the data: the first 2 compounds as a preview:
SMILES | 2A Renilla | StopGo FLuc
O=C(O)C(c1c[nH]c2ccccc12)N1CCN(Cc2ccc(Cl)cc2Cl)CC1 (stereo not given) | -18% | -10%
CCOc1ccc(C(c2c(O)cc(C)n(CCOC)c2=O)N2CCN(c3ccccc3F)CC2)cc1 (stereo not given) | -12% | -28%

This part in full, from the start:
SMILES | 2A Renilla | StopGo FLuc
O=C(O)C(c1c[nH]c2ccccc12)N1CCN(Cc2ccc(Cl)cc2Cl)CC1 (stereo not given) | -18% | -10%
CCOc1ccc(C(c2c(O)cc(C)n(CCOC)c2=O)N2CCN(c3ccccc3F)CC2)cc1 (stereo not given) | -12% | -28%
O=C(Oc1ccc(OC(=O)C2CCCCC2)c(Cl)c1)C1CCCCC1 | 6% | 14%
O=C(C1CCC(Cn2c(=O)c3sccc3n(Cc3ccccc3F)c2=O)CC1)N1CCCCC1 (stereo not given) | ? | ?
CCOC(=O)c1cccc(NC(=O)C2CCN(S(=O)(=O)c3c(C)noc3/C=C/c3ccc(C)cc3)CC2)c1 | -5% | -1%
COc1ccc(/C=C/c2nc3ccccc3s2)c(OC)c1OC | 19% | 183%[activator]
COC(=O)C1=CN(Cc2ccc(OC)c(OC)c2)C=C(C(=O)OC)C1c1ccccc1OC | -1% | 4%
Cc1ccc2oc(=O)c3cnn(CC(=O)N(C)c4ccc(F)cc4)c3c2c1 | -19% | -27%
CN(CC(=O)NC(N)=O)Cc1ccc(F)c(F)c1 | 8% | -6%
CCN(Cc1ccc2c(c1)OCCO2)C(=O)Cn1cnc2c(cnn2C)c1=O | -12% | -1%
Cn1c(=O)c2c(nc(CN3CCc4ccccc4C3)n2CCCO)n(C)c1=O | 0% | 4%
Cc1ccc(-n2ncc3c(=O)n(Cc4cccc(C(F)(F)F)c4)cnc32)cc1C | -9% | -4%
COc1ccc(C(=O)N2CC(=O)Nc3ccc(C)cc3C2c2ccccc2)cc1OC (stereo not given) | 103%[activator] | 31%[activator]
COc1ccccc1C(=O)NCCn1cc(SCC(=O)Nc2ccccc2F)c2ccccc21 | 0% | -14%
O=C(NC1CCCC1)C1CCN(C2=NS(=O)(=O)c3ccccc32)CC1 | -14% | -9%
C[S+](C)/N=C(\[O-])c1cccc(F)c1 | 18% | 16%
CSc1nc2ccccc2c(=O)n1CC(=O)c1ccccc1 | 0% | 0%
CN1CCOC(CNCc2ccc3ccccc3c2)C1 (stereo not given) | -8% | 11%
N#CCOc1ccc(NC(=O)c2ccc3ccccc3n2)cc1 | 25% | 1%
COC(=O)Cn1c(=O)c2c(nc3n2CCN3c2cccc(C)c2)n(C)c1=O | 0% | 3%
CCOC(=O)CSc1nc2c(sc3ccccc32)c(=O)n1Cc1ccc(OC)cc1 | -9% | -16%
CSc1ccc(CCNc2nc(-c3ccccc3F)no2)cc1 | 33% | 41%[activator]
Cc1cc(C)n(C(=O)c2cn(C)nc2S(=O)(=O)N2CCN(c3cc(Cl)ccc3C)CC2)n1 | 9% | 1%
O=C(CCc1c[nH]c2ccccc12)OCC(=O)N1CCOCC1 | -15% | -7%
CCCCNC(=O)CSc1nc2n[nH]c(C)c2c(=N)n1-c1ccccc1CC | 6% | -19%
NC(=O)NC1N=C([O][Al])NC1=O (stereo not given) | 0% | -4%[11.5 µM]
Cc1ccc2oc(C(=O)Nc3ccc(S(N)(=O)=O)cc3)cc(=O)c2c1 | -5% | -9%
Cc1ccc(Oc2coc3cc(OCC(=O)NC4CCCCC4)ccc3c2=O)cc1 | -12% | -4%
Cc1c(C)n(CCN2CCOCC2)c2ncn3nc(-c4ccccc4Br)nc3c12 | -9% | -9%
CCN(CC)CCNC(=O)C(C)c1nn(C)c(=O)c2ccccc12 (stereo not given) | -2% | -7%
CCC(=O)N1c2ccccc2CC1C(=O)NCCc1ccccc1Cl (stereo not given) | 1% | -13%
CCC(C)(C)C1CCC(NC(=S)NCCc2ccccc2)CC1 (stereo not given) | 9% | 0%
COc1ccc(S(=O)(=O)N(C(=O)c2ccncc2)c2ccc3oc(C)c(C(C)=O)c3c2)cc1 | -4% | ?
CCCS(=O)(=O)Nc1cc(-c2cn3ccc(C)cc3n2)ccc1C | 0% | 117%[activator]
O=C1CCCC2=C1C(c1cccc(Oc3ccccc3)c1)c1c([nH]n(-c3ccccc3)c1=O)N2 (stereo not given) | 105%[activator] | -10%
O=C(Nc1ccc(S(=O)(=O)Nc2cnc3ccccc3n2)cc1)c1ccncc1 | ? | 25%
CCNc1nc(-c2ccc(S(=O)(=O)N3CCCC3)cc2)cs1 | ? | 9%
Cc1c(C(=O)Nc2ccccc2F)sc2ncnc(N(C)C3CCCCC3)c12 | -14% | -8%
CCOC(=O)c1c(C)[nH]c(C)c1S(=O)(=O)N(C)CC(=O)NCc1ccc(C)cc1 | 23% | 2%
N#Cc1nc(-c2ccccc2Cl)oc1NC1CCCCC1 | 94%[activator] | 122%[activator]
CCN(C(=O)c1cc(S(=O)(=O)N2CCCC2)cn1C)c1ccc(OC)cc1 | 30%[activator] | 2%
N#Cc1ccc(NC(=O)COCC(=O)NNC(=O)c2ccncc2)cc1 | -8% | 3%
Cc1cccc(NC(=O)c2nn(C)c(=O)c3ccccc23)c1 | -7% | 7%
COc1ccccc1NC(=O)COc1nc(C(C)C)c2c(c1C#N)CCC2 | -1% | 15%
COc1cccc(-c2nc(SCC(=O)NC3CCCC3)c(-c3ccccc3)[nH]2)c1 | 0%&27% | -1%&-6%
CCOCCCNC(=O)c1ccc(OCC)c(OCC)c1 | -12%[1.06 µM] | 11%
CCOc1cccc(C2c3c(oc4ccc(F)cc4c3=O)C(=O)N2c2cc(C)ccn2)c1 (stereo not given) | -5% | -1%
O=C(NC1CCCc2ccccc21)c1cc(-c2cccnc2)nc2ccc(Cl)cc12 (stereo not given) | -6% | 0%
COc1ccc(CNS(=O)(=O)/C=C/c2ccccc2CNC(=O)OC(C)(C)C)cc1 | -24% | ?
CCOC(=O)c1ccc(N2C(=O)c3n[nH]c(-c4ccco4)c3C2c2ccc(OC)cc2OC)cc1 (stereo not given) | ? | ?

Full records as entered above. Order of values: 2A Renilla | StopGo FLuc
CN(CC(=O)NC(N)=O)Cc1ccc(F)c(F)c1 reads 8% | -6%
O=C(Oc1ccc(OC(=O)C2CCCCC2)c(Cl)c1)C1CCCCC1 reads 6% | 14%
COc1ccc(CNS(=O)(=O)/C=C/c2ccccc2CNC(=O)OC(C)(C)C)cc1 reads -24% | ?

Additional compounds:
SMILES | 2A Renilla | StopGo FLuc
O=C(CSc1ccc2ccccc2n1)NCCc1ccc(F)cc1 | 8% | 0%
Cn1nnnc1-c1cccc(NS(=O)(=O)c2ccccc2)c1 | 226%[activator] | 16%
COc1ccccc1Cn1cc(C(=O)c2ccc(C)cc2)c(=O)c2cc(F)cc(F)c21 | 5% | -1%
CC(C)(C)Sc1ccc2nn(CC(=O)NCc3ccc(F)cc3)c(=O)n2n1 | -15% | 13%
Cc1ccc(CNC(=O)c2cnn(C)c2-n2cccc2)s1 | -9% | -4%
O=C(CCN1C(=O)C2C3CCC(C3)C2C1=O)OCC(=O)c1ccc(Cl)c([N+](=O)[O-])c1 (stereo not given) | -6% | -4%
CCc1c(C)sc2c1CCN(Cc1ccccc1F)C2c1ccccc1 (stereo not given) | ? | 0%
CC(C)=CC(=O)N(CC1CCOC1)C1CC1 (stereo not given) | 0% | 11%
COc1ccc(C(=O)c2c(N)c(C(=O)Nc3ccccc3C)c3ccccn23)cc1 | -9% | -4%
CC(=O)NNC(=S)NC1CCCCC1 | 6% | 20%
COc1cc(NC(=O)CC(C)S(=O)(=O)c2cc3c4c(c2)CCN4C(=O)CC3)cc(OC)c1 (stereo not given) | -15% | -19%
CC(C)CSc1nc2c(c(=O)n(C)c(=O)n2C)n1C/C=C/c1ccccc1 | -8% | 6%
CCOC(=O)c1ccccc1NC(=O)c1c(C)oc2ncnc(N3CCOCC3)c12 | -12% | -20%
Cc1ccc(-c2cc(N)n3nc(-c4ccc(C)cc4)cc3n2)cc1 | -1% | 7%
Cc1ccc(Sc2ccc(/C=C(\C#N)c3nc4ccccc4[nH]3)o2)cc1 | -25% | 18%
COc1ccc(SCCC(=O)OCc2ccc(C#N)cc2)cc1 | 2% | 19%
Cc1c(C(=O)N2CCC(C)CC2)c(S(=O)(=O)N2CCN(c3ccc(Cl)cc3)CC2)c(C)n1C | -4% | -15%
COCCCNc1oc(/C=C/c2cccc(OC)c2)nc1C#N | 0% | 0%
CCn1c(CNC(=O)c2ccc(OC)cc2)nnc1SCC(=O)Nc1cc(C)ccc1C | 2% | 0%
CCN1CCN(C(c2ccc(SC)cc2)c2c(O)cc(C)n(CCOC)c2=O)CC1 (stereo not given) | 70%[activator] | -16%
Cc1cc(C)cc(NC(=O)CSc2oc(-c3ccccc3)nc2S(=O)(=O)c2ccc(Cl)cc2)c1 | -14% | -8%
CCc1ccc(-c2nn(Cc3ccccc3)cc2C(=O)N2CCN(CCO)CC2)cc1 | 51%[activator] | 26%
COC(=O)c1sc(=S)n(-c2c(C)cccc2C)c1N | 17% | 7%
CC(C)CN1CCOC(CNC(=O)Cc2ccc(Cl)c(Cl)c2)C1 (stereo not given) | -13% | -13%
COc1cc(CNCCSc2nnnn2C)ccc1OCc1ccc(F)cc1 | 4% | 69%[activator]
CSc1ccccc1C(=O)Nc1cc(C(F)(F)F)cc(C(F)(F)F)c1 | -10% | -11%
O=C(c1ccccc1)c1ccc(OC(=O)c2cccs2)cc1 | 14% | 82%[activator]
O=C1c2[nH]nc(-c3ccccc3O)c2C(c2cccc(OCc3ccccc3)c2)N1CCCO (stereo not given) | -4% | -14%
COc1cccc(NC(=O)C(=O)NCCc2csc(-c3ccc(C(F)(F)F)cc3)n2)c1 | -1% | 119%[activator]
COc1cccc(-c2nc3cc(Cl)ccc3o2)c1 | -6% | 206%[activator]
Cc1cc(Nc2ccc(Br)cc2)c2c([N+](=O)[O-])ccc(C)c2n1 | 17% | -9%
Cc1nc2nc(SCC(=O)NC(C)(C)C)nn2c(C)c1Cc1cccc(Cl)c1 | 13% | -3%
O=C(O)C(Cc1cc(I)c(O)c(I)c1)c1ccccc1 (stereo not given) | -10% | -2%[11.5 µM]
O=C(NCCCN1CCOCC1)c1ccc2c(c1)N(Cc1ccccc1)C(=O)c1ccccc1S2 | -2% | -22%
CCc1ccc(-c2cc(C(=O)NCCc3ccccc3)c3ccccc3n2)cc1 | 10% | 0%
C/C=N/NC(=O)CCCCC(=O)N/N=C/C | -7%[1.06 µM] | 10%
Cc1nn2c(NCCN3CCOCC3)cc(C(C)(C)C)nc2c1-c1ccccc1 | -15% | -16%
OCCc1nc2ccccc2s1 | ? | ?
Cc1c(Cl)cccc1NC(=S)NCCc1cccs1 | 164%[activator] | 0%
Cc1ccccc1-n1ccnc1SCC(=O)c1ccccc1F | 74%[activator] | 151%[activator]

The list goes on (four carried over from the part before).
SMILES | 2A Renilla | StopGo FLuc
Cc1nn2c(NCCN3CCOCC3)cc(C(C)(C)C)nc2c1-c1ccccc1 | -15% | -16%
OCCc1nc2ccccc2s1 | ? | ?
Cc1c(Cl)cccc1NC(=S)NCCc1cccs1 | 164%[activator] | 0%
Cc1ccccc1-n1ccnc1SCC(=O)c1ccccc1F | 74%[activator] | 151%[activator]
Cc1ccc(S(=O)(=O)NC2CC2)cc1C(=O)Nc1ccccc1C(=O)NC1CC1 | 66%[activator] | 9%
CC1=C(C(=O)N2CCCCC2)C(c2ccc(Cl)cc2)n2c(nc3ccccc32)N1 (stereo not given) | -8% | -14%
CN(CC(=O)Nc1ccccc1C(F)(F)F)C(=O)Cc1ccc2c(c1)CCCC2 | -4% | -3%
Cn1c(=O)[nH]c(=O)c2c1nc(NC1CCCCC1)n2CC(=O)c1ccccc1 | -3% | -2%
CC(C)Cc1nc(C#N)c(NCC(c2cccs2)N2CCOCC2)o1 (stereo not given) | 12% | 15%
Clc1ccc(Cl)c(-c2nn3c(CN4CCOCC4)nnc3s2)c1 | -1% | 1%
CCONC(=O)c1ccc(NC(=O)c2cccs2)cc1 | 10% | 0%
Cc1cc(C(=O)OCc2ccccc2C#N)c(C)o1 | 8% | 42%[activator]
O=C(NCc1ccc(F)cc1)C1CCN(S(=O)(=O)c2ccc3c(c2)CCCN3C(=O)C2CCC2)CC1 | -4% | -23%
CCOc1ccc(NC(=O)c2cc(=O)c3ccccc3o2)cc1OC | 3% | 0%
CC1CCN(C(=O)c2cnn(-c3cccc(Cl)c3)c2C2CCN(C(=O)OC(C)(C)C)CC2)CC1 | ? | ?

These rows are one share of the data; the hit share may differ from the screen's.
